From PubChem BioAssay
D2 ag – Beta-Arrestin HTS for Positive Allosteric Modulators of the Human D2 Dopamine Receptor: Agonists; D(2) dopamine receptor (Homo sapiens), P14416; DiscoveRx PathHunter D2 beta-arrestin, luminescence, 90 min; 100% = 57 uM dopamine signal; activation, % (no concentration beside the values); hit rate 0.084% among 360,000; in the data active = activation above about 40%; inconclusive = about 15% to 40%; inactive = below about 15%; further: compound concentration not given in the record; the text of the record calls up to 30% inactive
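DiscoveRx PathHunter D2 beta-arrestin cells (2,100/well) attached overnight, then compound-stimulated 90 min at 37 C in HBSS/10 mM HEPES/0.1% Tween-20 buffer; beta-galactosidase complementation read by luminescence after 1 h at ambient temperature. Dopamine 57 uM final (EC100) as control.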
Sfp inh – qHTS Assay for Inhibitors of Bacillus subtilis Sfp phosphopantetheinyl transferase (PPTase). 4'-phosphopantetheinyl transferase ffp (Bacillus subtilis), Q9F4F7. Biochemical Sfp PPTase activity, qHTS. Potency, µM, for inactives: max response, negative = inhibition, actives largely listed as inhibitors. hit rate 3.5% among 310,000; active means well fitted inhibition curve with a large enough effect; inconclusive means small, poorly fitted or top-dose-only effect, or another doubt; inactive means no such curve, though single readings can be large or run the other way;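 further: the enzyme is Sfp with the accession as filed and its product quenches rhodamine fluorescence; potency means the concentration at half of the fitted maximal effect; 0% = enzyme reaction without inhibitor and -100% = no enzyme wells; top concentration of the series not given in the record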
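Compounds were incubated with enzyme (final 15 nM) for 15 min at room temperature before substrate addition started the reaction. Fluorescence at 525 nm excitation, 598 nm emission was recorded immediately and after 30 minutes.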
TRPV1 PAM – HTS Assay for Compounds that Act as Potentiators of the Vanilloid Receptor 1; TRPV1-expressing cells, Fluo-8 calcium influx, capsaicin EC20 potentiation; host cell line not named in the record; control for the full effect not named in the record; potentiation, % at 8.33 µM; hit rate 0.02% among 320,000; active means potentiation above 80%; inconclusive means 30% to 80%; inactive means below 30%; further: 0% is about no effect
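TRPV1-expressing cells were cultured overnight at 35.5C and loaded with Fluo-8 calcium dye for 40 to 90 min at room temperature. After a 10 s baseline, compound was added and calcium influx was read kinetically for 3 min (ex 480/em 520 nm).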
PINK1 modulator – A Quantitative High throughput Screen to Identify Chemical Modulators of PINK1 Expression; PINK1 immunofluorescence, high-content cytometry, 24 h; Potency, µM (series often up to 76.6 µM), without a hit: at the top dose activation (PINK1 increase), actives largely listed as activators; hit rate 0.2% among 410,000; active = well fitted activation curve with a large enough effect; inconclusive = small, poorly fitted or top-dose-only effect; inactive = flat fitted curve, though single readings scatter; cell line not stated here;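 further: potency means the concentration at half of the fitted maximal effect; % of control where 0% means no effect; nearly all actives have a fitted effect of over 65% in size; a mitochondrial uncoupler was the plate control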
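A stable cell line was treated with compounds at 5 concentrations for 24 hours, with CCCP as control. PINK1 levels and mitochondrial localization were measured by immunofluorescence with mitochondrial, cell and nuclear markers after fixation, read by laser-scanning cytometry.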
Six1-Eya2 blk – qHTS Assay for Inhibitors of the Six1/Eya2 Interaction; AlphaScreen GST-Six1/His-Eya2 binding, biochemical; active compounds read low; control for the full effect not named in the record; activity change, % (concentration not given with the values); hit rate 0.56% among 360,000; in the data active = activity change below about -65%; inconclusive = about -30% to -65%; inactive = above about -30%; further: on the % scale 0 is the no-effect control and ±100 the full control effect
Target sequence (O00167 whole entry, looked up): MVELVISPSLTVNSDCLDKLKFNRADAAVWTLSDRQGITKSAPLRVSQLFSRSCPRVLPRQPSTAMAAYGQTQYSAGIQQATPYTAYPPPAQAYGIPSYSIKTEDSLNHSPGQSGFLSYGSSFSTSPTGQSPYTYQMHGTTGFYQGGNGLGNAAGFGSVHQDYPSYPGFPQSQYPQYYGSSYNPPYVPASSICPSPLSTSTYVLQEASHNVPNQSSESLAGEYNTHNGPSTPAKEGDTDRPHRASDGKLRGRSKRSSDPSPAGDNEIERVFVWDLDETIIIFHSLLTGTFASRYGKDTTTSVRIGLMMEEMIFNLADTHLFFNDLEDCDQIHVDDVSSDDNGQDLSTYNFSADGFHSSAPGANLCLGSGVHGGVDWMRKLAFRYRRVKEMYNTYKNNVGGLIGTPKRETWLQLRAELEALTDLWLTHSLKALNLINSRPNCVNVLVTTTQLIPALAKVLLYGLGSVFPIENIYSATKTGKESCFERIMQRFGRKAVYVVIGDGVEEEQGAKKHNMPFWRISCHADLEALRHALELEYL
Target sequence (Q15475 whole entry, looked up): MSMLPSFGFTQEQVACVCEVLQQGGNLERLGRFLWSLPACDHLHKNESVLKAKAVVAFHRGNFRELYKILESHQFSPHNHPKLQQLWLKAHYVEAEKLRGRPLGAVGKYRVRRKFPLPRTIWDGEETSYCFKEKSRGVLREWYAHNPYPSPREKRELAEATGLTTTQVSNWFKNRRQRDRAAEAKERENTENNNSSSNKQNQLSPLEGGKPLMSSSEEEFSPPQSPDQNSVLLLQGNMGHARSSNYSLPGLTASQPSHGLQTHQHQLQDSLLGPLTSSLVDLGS
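AlphaScreen with GST-Six1 and His-Eya2 (5X mix: 250 nM and 500 nM), glutathione donor and nickel acceptor beads; buffer 50 mM Tris pH 8.0, 300 mM NaCl, 1 mM TCEP; 1 h at 37 C in the dark.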
CtBP-E1A blk – qHTS Assay for Inhibitors of the CtBP/E1A Interaction | activity change, % (test concentration not listed) | CtBP / adenovirus E1A interaction (AlphaScreen) | AID 651724, 2012 | AlphaScreen GST-E1A/His-CtBP binding, 1536-well; active compounds read low; control for the full effect not named in the record | hit rate 0.49% among 340,000; in the data active means activity change below about -65%; inconclusive means about -30% to -65%; inactive means above about -30%; further: on the % scale 0 is the no-effect control and ±100 the full control effect
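Protein mix (5X: 125 nM each GST-E1A, His-CtBP) was incubated with pinned compound 2 h at 37 deg C in dark, in 50 mM Tris pH 8.0 buffer with 300 mM NaCl. Glutathione donor and nickel acceptor beads followed; AlphaScreen signal read after 1 h.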
D2 PAM – Beta-Arrestin HTS for Positive Allosteric Modulators of the Human D2 Dopamine Receptor: Potentiators; DiscoveRx D2 beta-arrestin cells, luminescence, 90 min; 100% = 57 uM dopamine signal; D(2) dopamine receptor (Homo sapiens), P14416; potentiation, % (concentration not given with the values); AID 624464, 2012; hit rate 0.23% among 360,000; active = potentiation of 50% or more; inconclusive = 30% to 50%; inactive = 30% or less;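 further: compound concentration not given in the record; tested on top of an EC20 dose of dopamine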
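D2 cells co-treated with compound plus 50 nM dopamine (EC20) for 90 min at 37 deg C to detect potentiation. Beta-arrestin recruitment was read as enzyme-fragment luminescence after 1 h at ambient temperature. Full response was set by 57 uM dopamine.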
Active calls of the source: *; & = joins results of further samples.

Results for COc1ccccc1CCN1CCCC(CN(C)C(=O)CCC(=O)N(C)C)C1 (stereo not given) ?
D2 ag: 4.5; Sfp inh: 2%; TRPV1 PAM: 0; PINK1 modulator: -0.1%; Six1-Eya2 blk: 6; CtBP-E1A blk: 5; D2 PAM: -7

How did O=c1[nH]c2ccc(NCc3ccccc3OCc3ccc(Cl)cc3)cc2[nH]1 do in these assays?
D2 ag: 4.3; Sfp inh: -28%; TRPV1 PAM: 2; PINK1 modulator: 3.0%; Six1-Eya2 blk: inconclusive; CtBP-E1A blk: inconclusive; D2 PAM: -1

Results for O=S(=O)(c1cccc2nsnc12)N1CCN(c2ccc(F)cc2)CC1 ?
D2 ag: 2.7; Sfp inh: -5%; TRPV1 PAM: 20; PINK1 modulator: -0.5%; Six1-Eya2 blk: -7; CtBP-E1A blk: 0; D2 PAM: -6

What do the screens show for `CC(=O)NC1(c2ccccc2)CCN(c2nc(C)cc(C)n2)CC1`?
D2 ag: -2.7; Sfp inh: 13%; TRPV1 PAM: -7; PINK1 modulator: -1.7%; Six1-Eya2 blk: -3; CtBP-E1A blk: 0; D2 PAM: -2

How did Cc1nc2ccccc2nc(C)c1=NOCc1ccccc1Cl do in these assays?
D2 ag: -1.1; Sfp inh: 2%; TRPV1 PAM: 3; PINK1 modulator: 7.0%; Six1-Eya2 blk: 3; CtBP-E1A blk: 3; D2 PAM: -14

What do the screens show for `CCn1nnc2cc(C(=O)OCC(=O)N(C)Cc3cccc(F)c3)ccc21`?
D2 ag: 8.1; PINK1 modulator: 1.5%; Six1-Eya2 blk: 2; CtBP-E1A blk: 4; D2 PAM: 2

What do the screens show for `COCCN1Cc2cccc(C(=O)NCc3cccs3)c2C1=O`?
D2 ag: -4.2; Sfp inh: 21%; TRPV1 PAM: 1; PINK1 modulator: -0.6%; Six1-Eya2 blk: -3; CtBP-E1A blk: 12; D2 PAM: 1

What do the screens show for `O=C(Nc1ccccc1C(=O)N1CCCCCC1)c1cccc(S(=O)(=O)N2CCOCC2)c1`?
D2 ag: 11; Sfp inh: 13%; TRPV1 PAM: -10; PINK1 modulator: -0.6%; Six1-Eya2 blk: -1; CtBP-E1A blk: 16; D2 PAM: -10

What do the screens show for `O=C1C=CC(=O)N1CCCCCCN1C(=O)C=CC1=O`?
D2 ag: -4.7; Sfp inh: 3.5µM*; TRPV1 PAM: -2; PINK1 modulator: -1.2%; Six1-Eya2 blk: -15; CtBP-E1A blk: -13; D2 PAM: -40

What do the screens show for `CCN(CC)CCC(c1ccc2c(c1)OCO2)c1c(O)cc(OC)cc1OC` (stereo not given)?
D2 ag: 0.1; Sfp inh: -12%&5%; TRPV1 PAM: inconclusive; PINK1 modulator: 0.9%; Six1-Eya2 blk: -11; CtBP-E1A blk: -7; D2 PAM: -23

What do the screens show for `CCCCCOC(=O)c1[nH]c2c(c1C)C(=O)C(C(=O)OC)C(C)C2` (stereo not given)?
D2 ag: 1.5; Sfp inh: -15%; TRPV1 PAM: -5; PINK1 modulator: 3.0%; Six1-Eya2 blk: -16; CtBP-E1A blk: -2; D2 PAM: -2

What do the screens show for `Cc1cc(N/C=C(\C#N)S(=O)(=O)c2ccc(Cl)cc2)nc(C)n1`?
D2 ag: -11; Sfp inh: 3%; TRPV1 PAM: -11; PINK1 modulator: 1.6%; Six1-Eya2 blk: 7; CtBP-E1A blk: -1; D2 PAM: -2

Among those listed so far, these contain a Cl atom.
How did O=c1[nH]c2ccc(NCc3ccccc3OCc3ccc(Cl)cc3)cc2[nH]1 do in these assays?
D2 ag: 4.3; Sfp inh: -28%; TRPV1 PAM: 2; PINK1 modulator: 3.0%; Six1-Eya2 blk: inconclusive; CtBP-E1A blk: inconclusive; D2 PAM: -1

How did Cc1nc2ccccc2nc(C)c1=NOCc1ccccc1Cl do in these assays?
D2 ag: -1.1; Sfp inh: 2%; TRPV1 PAM: 3; PINK1 modulator: 7.0%; Six1-Eya2 blk: 3; CtBP-E1A blk: 3; D2 PAM: -14

What do the screens show for `Cc1cc(N/C=C(\C#N)S(=O)(=O)c2ccc(Cl)cc2)nc(C)n1`?
D2 ag: -11; Sfp inh: 3%; TRPV1 PAM: -11; PINK1 modulator: 1.6%; Six1-Eya2 blk: 7; CtBP-E1A blk: -1; D2 PAM: -2

Additional entries:
How did CCC1CN(C(=O)NCc2ccccc2)c2ccccc2O1 (stereo not given) do in these assays?
D2 ag: -3.5; Sfp inh: 13%; TRPV1 PAM: 2; PINK1 modulator: 0.9%; Six1-Eya2 blk: 13; CtBP-E1A blk: 7; D2 PAM: -5

How did COc1ccc(Cc2c(C(C)(C)C)nc3ccc(Cl)cn23)c(C)c1 do in these assays?
D2 ag: -1.5; PINK1 modulator: 3.7%; Six1-Eya2 blk: 32; CtBP-E1A blk: 21; D2 PAM: 2

Results for CCOC(=O)C1=CCN(S(=O)(=O)c2ccccc2C)C1c1ccc(Cl)c(Cl)c1 (stereo not given) ?
D2 ag: -6.3; PINK1 modulator: 0.5%; Six1-Eya2 blk: 8; CtBP-E1A blk: 10; D2 PAM: -2

How did CC(=O)Cc1nsc(NC(=O)c2ccccc2)n1 do in these assays?
D2 ag: -3.0; Sfp inh: inconclusive; TRPV1 PAM: -7; PINK1 modulator: 0.4%; Six1-Eya2 blk: -3; CtBP-E1A blk: -3; D2 PAM: 8

Results for CCN1CCN(Cc2oc(CO)cc(=O)c2O)CC1 ?
D2 ag: -2.8; Sfp inh: -7%; TRPV1 PAM: 6; PINK1 modulator: -0.6%; Six1-Eya2 blk: 3; CtBP-E1A blk: 2; D2 PAM: -2

Results for O=C(NC1CCCC1)C(c1ccccn1)N(C(=O)c1csnn1)c1ccccc1Br (stereo not given) ?
D2 ag: -0.4; TRPV1 PAM: 0; PINK1 modulator: 1.2%; Six1-Eya2 blk: 1; CtBP-E1A blk: 6; D2 PAM: -19

What do the screens show for `Cc1cccc(C(C)n2nnc3ccccc32)c1O` (stereo not given)?
D2 ag: -6.1; TRPV1 PAM: 86*; PINK1 modulator: 1.5%; Six1-Eya2 blk: -6; CtBP-E1A blk: -2; D2 PAM: -12

Results for CCOC(=O)c1ccccc1NC(=O)c1c(F)c(F)c(F)c(F)c1F ?
D2 ag: 0.0; Sfp inh: -8%; TRPV1 PAM: -4; PINK1 modulator: -6.7%; Six1-Eya2 blk: 27; CtBP-E1A blk: 19; D2 PAM: -14

How did COc1ccc(C2NC(=S)N3C(c4ccc(OC)cc4)NC(=S)N23)cc1 (stereo not given) do in these assays?
D2 ag: 1.2; Sfp inh: 56µM*; TRPV1 PAM: 9; PINK1 modulator: -0.5%; Six1-Eya2 blk: 3; CtBP-E1A blk: -1; D2 PAM: -16

What do the screens show for `CCOC(=O)Cc1csc(NS(=O)(=O)c2ccc([N+](=O)[O-])cc2)n1`?
D2 ag: 1.8; Sfp inh: 19%; TRPV1 PAM: inconclusive; PINK1 modulator: -1.3%; Six1-Eya2 blk: 2; CtBP-E1A blk: -1; D2 PAM: -1

What do the screens show for `COc1ccc(NC(=O)NNC(=O)COc2ccc3cc(Br)ccc3c2)cc1`?
D2 ag: -4.7; Sfp inh: inconclusive; TRPV1 PAM: inconclusive; PINK1 modulator: 0.1%; Six1-Eya2 blk: 2; CtBP-E1A blk: -4; D2 PAM: -1

Results for Cc1ccc(S(=O)(=O)NC(CC(C)C)C(=O)N2CCN(C/C=C/c3ccccc3)CC2)cc1 (stereo not given) ?
D2 ag: -0.5; TRPV1 PAM: 25; PINK1 modulator: 8.4%; Six1-Eya2 blk: -12; CtBP-E1A blk: -4; D2 PAM: -3

How did Cc1ccccc1C(=O)NCC(c1ccco1)N1CCc2ccccc2C1 (stereo not given) do in these assays?
D2 ag: 3.0; TRPV1 PAM: -8; PINK1 modulator: -0.3%; Six1-Eya2 blk: -5; CtBP-E1A blk: 1; D2 PAM: 4

What do the screens show for `Cc1cc(C)nc(NNC(=O)c2ccccc2O)n1`?
D2 ag: 12; Sfp inh: inconclusive; TRPV1 PAM: 4; PINK1 modulator: -0.7%; Six1-Eya2 blk: 3; D2 PAM: -10

How did CN1CCC(N(C)C(=O)/C=C/c2cn(-c3ccccc3)nc2-c2cccs2)CC1 do in these assays?
D2 ag: 1.5; Sfp inh: inconclusive; TRPV1 PAM: -4; PINK1 modulator: -2.3%; Six1-Eya2 blk: -11; CtBP-E1A blk: 12; D2 PAM: -35

What do the screens show for `COc1ccc(C(=O)NC(=S)NCc2cccnc2)cc1Br`?
D2 ag: 12; Sfp inh: 8%; TRPV1 PAM: -1; PINK1 modulator: 0.3%; Six1-Eya2 blk: 0; D2 PAM: -6

How did CCOc1ccc(CN2CCN(CC3=Cc4cccc(OC)c4OC3)CC2CCO)cc1 (stereo not given) do in these assays?
D2 ag: -2.4; Sfp inh: -16%; TRPV1 PAM: 4; PINK1 modulator: 1.1%; Six1-Eya2 blk: -1; CtBP-E1A blk: 1; D2 PAM: -4

What do the screens show for `COc1ccc(-c2cc(C)no2)cc1S(=O)(=O)Nc1cccc(CN2CCCC2)c1`?
D2 ag: -4.1; Sfp inh: -3%; TRPV1 PAM: -6; PINK1 modulator: -1.3%; Six1-Eya2 blk: 5; CtBP-E1A blk: -10; D2 PAM: -34

Results for CC(=O)NC12CC3CC(C1)CC(C(=O)N1CCN(S(=O)(=O)c4cccc(F)c4)CC1)(C3)C2 ?
D2 ag: -0.8; Sfp inh: 23%; TRPV1 PAM: -11; PINK1 modulator: 4.6%; Six1-Eya2 blk: -1; CtBP-E1A blk: 5; D2 PAM: -6

How did CC(C)(C)S(=O)(=O)c1cnc(-c2ccccn2)nc1N do in these assays?
D2 ag: 0.1; Sfp inh: 14%; TRPV1 PAM: 0; PINK1 modulator: 4.3%; Six1-Eya2 blk: inconclusive; CtBP-E1A blk: inconclusive; D2 PAM: -4

Hits appear at their usual frequency; 3.7% or so of the library scored in one or more.
